# Screening results from PubChem BioAssay.
# ugtP null kill – growth inhibition of ugtP-null S. aureus, primary screen, RN4220 ugtP deletion, OD600. 16 h; some inactives read as strong as hits. growth inhibition, % (test concentration not listed). hit rate 0.54% among 330,000;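 active means z-score under -3 and OD600 up to 0.15 on both plates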;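 further: plate controls were untreated wells for no effect and antibiotic for full effect; wells of about 80 µL received 100 nL stock; the first replicate is given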
# Sa RN4220 lethal – growth inhibition of S. aureus RN4220, primary screen, OD600. 16 h. inhibition, % (no concentration beside the values). hit rate 0.33% among 330,000. AID 1259311, 2017;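 active means z-score of -3 or lower and OD600 up to 0.18 on both plates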;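 further: plate controls were untreated cells for no effect and reference antibiotic for full effect; stock transfer was 100 nL into about 80 µL; one replicate is shown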
# BJeLR lethal – MLPCN primary cell-based screen for lethality selective to Ras in HRASV12 cells. BJeLR (HRASV12) viability, CellTiter-Glo ATP luminescence, 48 h; reference of the scale not given here. inhibition, % (no concentration beside the values). hit rate 0.17% among 300,000;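 active means replicate mean above 50%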;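 further: 50 nL library stock added to about 25 µL; numbers are from one replicate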
# Autofluor counter – compound fluorescence in toxin protease inhibitor counterscreen; compound autofluorescence counterscreen, microsphere flow cytometry; active compounds read high; fluorescence intensity (no concentration beside the values); hit rate 3.1% among 360,000; AID 624483;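 active means at least 3 SD above the mean of all compounds, about 16000 in these data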;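 further: 100 nL of 1 mM stock went into each well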
# Mtb hypoxia inh – PubChem AID 1159583 | M. tuberculosis hypoxia-regulated fluorescent reporter, fluorescence | fluorescence inhibition, % (no concentration beside the values) | hit rate 0.1% among 300,000;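 active means 35 to 45% if threefold the growth effect, above 45% if 1.5-fold the growth effect; inactive means the rest, general growth blockers included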;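 further: wells of about 50 µL received 100 nL stock; 0% = vehicle wells and 100% = reference inhibitor wells; whole bacteria with a GFP reporter of the hypoxia response; strong numbers were not always called active; many hits fall short of the cut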
# PrP 5UTR inh – inhibition of PrP 5' UTR reporter expression | inhibition, % (test concentration not listed) | hit rate 0.35% among 340,000 | cell-based PrP 5' UTR mRNA reporter, plate reader;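 active means every replicate at 50% or more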;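 further: 0 = median of the neutral control wells; tested in H4 reporter cells; numbers are from one replicate; inactives centre near -14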
# Mtb hypoxia inh growth – further read-out of Mtb hypoxia inh, marked with its call; growth inhibition, %; measured here: M. tuberculosis growth (absorbance);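 0% = vehicle and 100% = reference antibiotic; read after six days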
# Starred values were filed as active, the others as inactive; x = no result given. Rows are unselected; overall some 4% were active at least once.
# Codes: A = ugtP null kill; B = Sa RN4220 lethal; C = BJeLR lethal; D = Autofluor counter; E = Mtb hypoxia inh; F = Mtb hypoxia inh growth; G = PrP 5UTR inh
COc1ccc(OCC(=O)Nc2nonc2NC(=O)COc2ccc(OC)cc2)cc1
  A: 4 | B: 1.0 | C: -3 | D: 5064 | E: 9 | F: 1 | G: -10

COc1ccc2nc(SCC(=O)NCc3ccc(F)cc3)[nH]c2c1
  A: 7 | B: -7.6 | C: -8 | D: 4413 | E: 8 | F: 6 | G: -22

COc1ccc(C=NNC(=O)c2ccccc2)cc1OS(=O)(=O)c1ccccc1
  A: -9 | B: -0.1 | C: x | D: x | E: -11 | F: 14 | G: x

CCN(CC)CCNC(=O)C1(O)c2cc(Br)ccc2NC(=O)N1c1c(F)cccc1F (configuration not stated)
  A: 2 | B: -0.5 | C: -3 | D: 3926 | E: -10 | F: 8 | G: -19

Cc1ccc(C(=O)NCc2ccc(F)cc2)cc1NC1=NC2CS(=O)(=O)CC2S1 (configuration not stated)
  A: 5 | B: -1.0 | C: 4 | D: 5638 | E: 8 | F: 2 | G: -18

C[C@]12CC[C@H](O)CC1=CC(=O)C1C2CC[C@]2(C)C(=O)CCC12 (some centres not stated)
  A: -2 | B: 5.7 | C: x | D: 3973 | E: 18 | F: 6 | G: -20

COc1cccc(C(=O)NCCC2=CCCCC2)c1
  A: 10 | B: -3.2 | C: 9 | D: 4101 | E: x | F: x | G: -20

COc1cc(/C=C2/C(=O)ON=C2C)ccc1OCc1cccc(F)c1
  A: 2 | B: -0.2 | C: 3 | D: 3992 | E: 13 | F: -11 | G: -20

Cc1cccc(Cn2cnc3c(sc4nc(C)cc(C)c43)c2=O)c1
  A: 9 | B: 0.5 | C: -3 | D: 5303 | E: 2 | F: 5 | G: -15

CC(=O)Oc1ccc(N2C(=O)C3C4C=CC(CC4)C3C2=O)cc1[N+](=O)[O-] (configuration not stated)
  A: 3 | B: 4.2 | C: 3 | D: 2393 | E: 1 | F: 1 | G: -11

COc1ccccc1NC1=NC(CO)(CO)CS1
  A: 3 | B: 1.7 | C: -7 | D: x | E: 5 | F: 8 | G: x

c1ccc(CSc2ccc(-c3ccco3)nn2)cc1
  A: 5 | B: 4.0 | C: 12 | D: 4110 | E: 7 | F: 5 | G: -141

CN(Cc1ccccc1)C(=O)N[C@@H](Cc1ccccc1)C(=O)O
  A: 0 | B: 15 | C: -7 | D: 3298 | E: -2 | F: 12 | G: -4

Cc1ccccc1/[N+]([O-])=C/c1cccs1
  A: 4 | B: 0.4 | C: -3 | D: 2299 | E: -10 | F: -1 | G: -16

Cc1cc(NS(=O)(=O)c2ccc(NC(=O)CN3C(=O)NC(C)(c4ccccc4)C3=O)cc2)nc(C)n1 (configuration not stated)
  A: 1 | B: 0.4 | C: 1 | D: 5736 | E: 10 | F: 3 | G: -20

CCc1nnc(NC(=O)CSc2nc3cc(OC)c(OC)cc3cc2C)s1
  A: 14 | B: 8.3 | C: -1 | D: 3406 | E: 6 | F: 1 | G: -1

O=C(CN1CCN(Cc2ccc3c(c2)OCO3)CC1)NCC(F)(F)F
  A: 3 | B: 6.4 | C: -16 | D: 3816 | E: -10 | F: 8 | G: -12

Clc1ccc(Cc2nc(-c3cccnc3)no2)cc1
  A: -3 | B: 3.8 | C: 5 | D: 21733* | E: 14 | F: 3 | G: -30

CC(C)(C)C(COc1ccccc1[N+](=O)[O-])=NO
  A: -3 | B: 8.4 | C: x | D: x | E: 10 | F: 8 | G: x

CCC(C)(C)c1ccc(OCCCC[n+]2ccccc2)c(C(C)(C)CC)c1
  A: 100* | B: 101* | C: x | D: 1942 | E: x | F: x | G: -21

Cc1ccc(NC(=O)C(=CC=Cc2ccccc2)NC(=O)c2ccccc2)cc1
  A: 2 | B: 3.6 | C: x | D: x | E: -1 | F: 2 | G: x

Cc1ccnc(NC(=O)COc2ccc3c(c2)CCC3)c1
  A: 11 | B: 1.1 | C: 6 | D: x | E: 5 | F: -1 | G: -19

O=C(Nc1ccnn1C1CCN(Cc2ccccc2OC(F)F)CC1)c1cccnc1
  A: 10 | B: 4.3 | C: 10 | D: 4694 | E: 5 | F: -4 | G: -18

O=C(Nc1ccncc1)C1CC1c1ccccc1 (configuration not stated)
  A: -1 | B: 1.2 | C: 7 | D: 4598 | E: x | F: x | G: -19

O=C(O)c1cccc(NC(=O)c2cccc(S(=O)(=O)Nc3cccc([N+](=O)[O-])c3)c2)c1
  A: 6 | B: 6.0 | C: 0 | D: 4198 | E: 3 | F: -2 | G: -8

COc1ccc(C2=Nc3nc(-c4ccccc4)cn3C(c3ccc(OC)cc3)C2)cc1 (configuration not stated)
  A: 85* | B: -7.7 | C: 4 | D: 2616 | E: -3 | F: 6 | G: -15

Cc1cccc(NC(=O)NCc2cccnc2)c1C
  A: 12 | B: 3.6 | C: -3 | D: 4734 | E: 9 | F: 8 | G: 9

COc1ccc(S(=O)(=O)N2CCN(C(=O)NCc3ccc(C)cc3)CC2)cc1
  A: 14 | B: -3.9 | C: 13 | D: 3733 | E: 5 | F: 7 | G: -22

CCCc1nnc(NC(=O)CCC(=O)N2CCN(CCn3c(C)ccc3C)CC2)s1
  A: 1 | B: 1.8 | C: -4 | D: 4871 | E: x | F: x | G: -14

Cc1cc(Oc2ccc(C(F)(F)F)cc2[N+](=O)[O-])c2c3c(c(=O)oc2c1)CCC3
  A: 4 | B: 0.6 | C: 2 | D: 8890 | E: 8 | F: 0 | G: -1

# Given comma-delimited: entries from further up
canonical_smiles,ugtP null kill,Sa RN4220 lethal,BJeLR lethal,Autofluor counter,Mtb hypoxia inh,Mtb hypoxia inh growth,PrP 5UTR inh
O=C(CN1CCN(Cc2ccc3c(c2)OCO3)CC1)NCC(F)(F)F,3,6.4,-16,3816,-10,8,-12
Clc1ccc(Cc2nc(-c3cccnc3)no2)cc1,-3,3.8,5,21733*,14,3,-30
CC(C)(C)C(COc1ccccc1[N+](=O)[O-])=NO,-3,8.4,x,x,10,8,x
CCC(C)(C)c1ccc(OCCCC[n+]2ccccc2)c(C(C)(C)CC)c1,100*,101*,x,1942,x,x,-21
Cc1ccc(NC(=O)C(=CC=Cc2ccccc2)NC(=O)c2ccccc2)cc1,2,3.6,x,x,-1,2,x
Cc1ccnc(NC(=O)COc2ccc3c(c2)CCC3)c1,11,1.1,6,x,5,-1,-19
O=C(Nc1ccnn1C1CCN(Cc2ccccc2OC(F)F)CC1)c1cccnc1,10,4.3,10,4694,5,-4,-18
O=C(Nc1ccncc1)C1CC1c1ccccc1 (configuration not stated),-1,1.2,7,4598,x,x,-19
O=C(O)c1cccc(NC(=O)c2cccc(S(=O)(=O)Nc3cccc([N+](=O)[O-])c3)c2)c1,6,6.0,0,4198,3,-2,-8
COc1ccc(C2=Nc3nc(-c4ccccc4)cn3C(c3ccc(OC)cc3)C2)cc1 (configuration not stated),85*,-7.7,4,2616,-3,6,-15
Cc1cccc(NC(=O)NCc2cccnc2)c1C,12,3.6,-3,4734,9,8,9
COc1ccc(S(=O)(=O)N2CCN(C(=O)NCc3ccc(C)cc3)CC2)cc1,14,-3.9,13,3733,5,7,-22

# Next section.
# Codes: A = ugtP null kill; B = Sa RN4220 lethal; C = BJeLR lethal; D = Autofluor counter; E = Mtb hypoxia inh; F = Mtb hypoxia inh growth; G = PrP 5UTR inh
CC(O)c1nc2ccccc2n1Cc1ccccc1 (configuration not stated)
  A: -2 | B: 0.5 | C: -3 | D: 3166 | E: -7 | F: 7 | G: -2

COc1ccc2nc(SCC(=O)Nc3ccccc3OC)[nH]c2c1
  A: -5 | B: -1.3 | C: 9 | D: 4408 | E: 2 | F: -4 | G: -18

Cc1ccc([N+](=O)[O-])cc1N=C1C(=O)Nc2ccccc21
  A: 17 | B: 0.4 | C: -2 | D: 3798 | E: 3 | F: 2 | G: -16

CC(C)(C)S(=O)N1Cc2cc(CO)cc(-c3ccccc3)c2[C@@H]1CCO (some centres not stated)
  A: -1 | B: 2.1 | C: x | D: 4163 | E: -9 | F: 5 | G: -6

O=S1(=O)CCC(=Nc2ccc(Cl)cc2)c2ccsc21
  A: 10 | B: 3.3 | C: 0 | D: 3847 | E: -2 | F: -11 | G: -13

CN(C(=O)CN1CC=C(c2ccccc2)CC1)c1c(N)n(Cc2ccccc2)c(=O)[nH]c1=O
  A: 0 | B: 0.2 | C: 4 | D: 4193 | E: 8 | F: 3 | G: -14

COc1cc(C(=O)N2CCN(c3ccccn3)CC2)cc(OC)c1OC
  A: 7 | B: 3.6 | C: -6 | D: 3455 | E: -1 | F: 11 | G: -14

CC(=O)N1c2ccc(S(=O)(=O)NCCC(=O)NCc3ccc(Cl)cc3)cc2CC1C (configuration not stated)
  A: 7 | B: 4.4 | C: 2 | D: 5922 | E: 2 | F: 14 | G: 10

Cc1ccc(/C=C(/C#N)C(=O)NC(C)c2ccccc2)o1 (configuration not stated)
  A: -1 | B: 4.2 | C: -1 | D: 7027 | E: 7 | F: 6 | G: 5

C=C(C)c1sc(-c2ccccc2)nc1C
  A: 1 | B: 2.9 | C: -8 | D: x | E: 6 | F: 5 | G: x

Clc1ccc(Oc2nc3c(Cl)cccc3s2)cc1Cl
  A: 14 | B: 4.0 | C: -2 | D: x | E: 6 | F: 1 | G: -22

CC(=O)N(CN1C(=O)c2ccc([N+](=O)[O-])cc2C1=O)c1cccc(C(=O)O)c1
  A: 5 | B: 4.5 | C: -3 | D: 2319 | E: 5 | F: 5 | G: -24

Cc1nc2ccc(NC(=O)c3cccc(S(=O)(=O)N4CC(C)OC(C)C4)c3)cc2s1 (configuration not stated)
  A: -11 | B: -7.4 | C: -2 | D: 7927 | E: x | F: x | G: -12

CN(C)C(CNc1ncnc2ccccc12)c1c(F)cccc1Cl (configuration not stated)
  A: 6 | B: -0.1 | C: -2 | D: 3204 | E: -1 | F: -10 | G: 13

CN(C)c1ccnc(Nc2ccc(F)cc2)c1C#N
  A: -3 | B: 8.7 | C: 1 | D: 4526 | E: 0 | F: 2 | G: -10

CCOc1ccccc1NC(=O)COc1cccc(-n2cnnn2)c1
  A: -9 | B: 4.9 | C: -14 | D: 23672* | E: 7 | F: 13 | G: 0

O=S(=O)(Cc1cc(N2CCOCC2)nc(-c2ccccn2)n1)c1ccccc1
  A: -3 | B: 7.0 | C: -6 | D: 2153 | E: -3 | F: 0 | G: 0

CC(=O)N1CCN(c2ccc(NC(=S)NC(=O)c3ccc(C)c([N+](=O)[O-])c3)cc2)CC1
  A: 90* | B: 3.6 | C: 6 | D: 3737 | E: 15 | F: 9 | G: -15

CCc1nnc(NC(=O)CCC(=O)N2CCCC(O)C2)s1 (configuration not stated)
  A: 3 | B: -1.5 | C: -13 | D: 5972 | E: -5 | F: 10 | G: -12

Cn1c2ccccc2c2cc(C(=O)NNC(=O)CCl)sc21
  A: -17 | B: 3.7 | C: 3 | D: 4219 | E: -4 | F: 12 | G: -13

CCCc1nc(SCC(=O)c2ccc(F)cc2)c2ccccc2n1
  A: x | B: x | C: 5 | D: 3195 | E: x | F: x | G: -13

Cc1[nH]c(=O)[nH]c(=O)c1S(=O)(=O)Nc1ccc(Cl)c([N+](=O)[O-])c1
  A: 14 | B: 1.0 | C: 1 | D: 3400 | E: 9 | F: 15 | G: -2

COc1ccc(C(=O)NCCn2cc(SCC(=O)NCc3ccco3)c3ccccc32)cc1
  A: 4 | B: 6.3 | C: 3 | D: 3555 | E: 8 | F: 7 | G: -2

CNC(=S)N=C(Nc1ccc(C)cc1)c1ccccc1
  A: 7 | B: -0.8 | C: x | D: x | E: 9 | F: -8 | G: x

CCOC(=O)C1CCCN(Cc2cc(OC)c(O)c(OC)c2)C1 (configuration not stated)
  A: 6 | B: 0.7 | C: 7 | D: 6006 | E: 3 | F: -11 | G: -88

Cc1ccc(NC(=O)NCc2ccncc2)cc1Cl
  A: -4 | B: -2.7 | C: 1 | D: 2649 | E: 16 | F: 0 | G: -12

CCCCn1c(SCc2ccc(C(=O)OC)o2)nc2cc(S(N)(=O)=O)ccc21
  A: 3 | B: 2.8 | C: -8 | D: 7604 | E: 15 | F: 2 | G: 6
